High-throughput results as filed in PubChem BioAssay.
Mtb H37Rv: Mycobacterium tuberculosis H37Rv growth inhibition, cell based, confirmatory dose response (AID 1949). 100,000 tested, 1.6% active. one-dose inhibition, % at 10 µg/mL; IC50 in µg/mL for titrated hits. most inactive calls were filed without a number and no value below 0 was filed;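 active = confirmed in a dose series; inconclusive = about 50% or more but not retested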;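 also: bacteria grown 7 days with compound before Alamar blue readout; 0% = untreated bacteria and 100% = reference antibiotic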
Numbers without * were called inactive; i = inactive; ? = inconclusive.

SMILES | Mtb H37Rv
c1ccc2sc(SCc3nc4c5c6c(sc5ncn4n3)CCCCC6)nc2c1 | i
Cc1cc(I)ccc1NC(=O)CN(c1ccccc1F)S(C)(=O)=O | i
Cc1ccc(-n2c(SCCOc3ccccc3)nnc2-c2ccncc2)cc1C | 3%
Cc1ccc(F)c(NC(=O)C2CC=CCC2C(=O)O)c1 (stereo not given) | 8%
CCOc1ccc(OCC(=O)Nc2sc3c(c2C(=O)OC)CCC3)cc1 | 1%
Cc1ccccc1C(=O)Nc1nc2ccc(S(=O)(=O)N3CCCC3)cc2s1 | i
O=C(NC(=S)NC12CC3CC(CC(C3)C1)C2)c1cccc(Cl)c1Cl | 7%
O=C(CSc1n[nH]c(-c2ccco2)n1)c1c[nH]c2ccccc12 | i
O=C(O)CCNC(=O)/C(=C\c1ccc(F)cc1)NC(=O)c1ccco1 | i
Cc1ccc(OCC(=O)Nc2c(C)cccc2C(C)C)c(Br)c1 | i
O=C(c1ccc(S(=O)(=O)N2CCOCC2)cc1)N1CCCC1 | i
Cc1ccc(CSCCNC(=O)C(C)Sc2ccc(C)cc2)cc1 (stereo not given) | i
NS(=O)(=O)c1ccc(CCNC(=O)c2cc3c(s2)CCCCCC3)cc1 | i
CN(C)c1nc(NC(C)(C)C)nc(SCC(=O)Nc2ccccc2)n1 | i
CC1=C(C(=O)Nc2cccc(Cl)c2C)C(c2cccc([N+](=O)[O-])c2)NC(=S)N1 (stereo not given) | i
Cc1cc(C)c(NC(=O)c2cccs2)c(Cl)c1 | i
CCOC(=O)c1nc(NCc2cccnc2)c2ccccc2n1 | i
COc1cccc(NC(=O)c2c(NC(=O)c3ccc(C)cc3)sc(C)c2C)c1 | 1%
COc1ccc(-n2c(SCC(=O)Nc3cc(C)on3)nc3sc4c(c3c2=O)CCCCC4)cc1 | 1%
CC(C)CN1C(=O)c2ccc(C(=O)c3ccc(C(=O)O)cc3)cc2C1=O | i
COCCNC(=O)c1c(NC(=O)Cc2cccc3ccccc23)sc2c1CCCC2 | i
CCOc1cc(CNc2ccc(N(C)C)cc2)cc(Br)c1OCC(=O)NC(C)(C)C | i
COc1cc(Cl)c(S(=O)(=O)N2CCN(c3ccc(C)cc3C)CC2)cc1Cl | i
Cc1cc(Cl)c(S(=O)(=O)Nc2ccc(F)cc2)cc1OCC(N)=O | i

Given tab-delimited: part of the list above.
Compound	Mtb H37Rv
CCOc1ccc(OCC(=O)Nc2sc3c(c2C(=O)OC)CCC3)cc1	1%
Cc1ccccc1C(=O)Nc1nc2ccc(S(=O)(=O)N3CCCC3)cc2s1	i
O=C(NC(=S)NC12CC3CC(CC(C3)C1)C2)c1cccc(Cl)c1Cl	7%
O=C(CSc1n[nH]c(-c2ccco2)n1)c1c[nH]c2ccccc12	i
O=C(O)CCNC(=O)/C(=C\c1ccc(F)cc1)NC(=O)c1ccco1	i
Cc1ccc(OCC(=O)Nc2c(C)cccc2C(C)C)c(Br)c1	i
O=C(c1ccc(S(=O)(=O)N2CCOCC2)cc1)N1CCCC1	i
Cc1ccc(CSCCNC(=O)C(C)Sc2ccc(C)cc2)cc1 (stereo not given)	i
NS(=O)(=O)c1ccc(CCNC(=O)c2cc3c(s2)CCCCCC3)cc1	i
CN(C)c1nc(NC(C)(C)C)nc(SCC(=O)Nc2ccccc2)n1	i
CC1=C(C(=O)Nc2cccc(Cl)c2C)C(c2cccc([N+](=O)[O-])c2)NC(=S)N1 (stereo not given)	i
Cc1cc(C)c(NC(=O)c2cccs2)c(Cl)c1	i
CCOC(=O)c1nc(NCc2cccnc2)c2ccccc2n1	i
COc1cccc(NC(=O)c2c(NC(=O)c3ccc(C)cc3)sc(C)c2C)c1	1%
COc1ccc(-n2c(SCC(=O)Nc3cc(C)on3)nc3sc4c(c3c2=O)CCCCC4)cc1	1%
CC(C)CN1C(=O)c2ccc(C(=O)c3ccc(C(=O)O)cc3)cc2C1=O	i
COCCNC(=O)c1c(NC(=O)Cc2cccc3ccccc23)sc2c1CCCC2	i

The listing continues:
SMILES | Mtb H37Rv
CC1(C)CC(=O)C2=C(C1)Nc1[nH]c(=S)[nH]c(=O)c1C2c1ccccc1 (stereo not given) | i
O=C(O)CC(Cc1ccccc1)C(=O)Nc1ccccc1 (stereo not given) | i
CCOC(=O)C1=C(c2ccccc2)NC(=S)NC1c1cccc(Cl)c1 (stereo not given) | i
CC(C)(C)NC(=O)C1Cc2ccccc2CN1S(=O)(=O)c1cccs1 (stereo not given) | i
Cc1ccc(S(=O)(=O)N(CC(=O)Nc2ccccc2F)Cc2cccc(C)c2)cc1 | i
CC(C)(C)SCCNC(=O)c1ccc(Cl)cc1Cl | i
COc1cc(S(=O)(=O)N2CCN=C2c2ccccc2)c(OC)cc1Br | i
CCC1CCCCN1C(=O)c1ccc(Cl)c(Cl)c1 (stereo not given) | i
COc1ccc(S(=O)(=O)N2Cc3ccccc3CC2C(=O)NC2CCCCC2)cc1 (stereo not given) | i
Cc1cc(C)c(OCC(=O)Nc2nccs2)cc1C | i
CC1C(c2ccccc2)=[N+]([O-])C2(CCCCC2)N1O (stereo not given) | i
N#Cc1ccc(NC(=O)c2csc3c2CCCC3)cc1 | i
Cc1cccnc1NC(=O)C12CCC(C)(C(=O)O1)C2(C)C (stereo not given) | i
Nn1c(SCc2ccc(Cl)cc2)nnc1C(F)(F)F | i
O=C(Cn1c(=S)nc2ccccn21)N1c2ccccc2CCc2ccccc21 | i
Cc1cc(C)c(C#N)c(SCc2ccc(C(=O)O)cc2)n1 | i
CC(=O)N(C)c1ccc(NC(=S)NCc2ccc(C)cc2)cc1 | i
O=C(Nc1nc(C23CC4CC(CC(C4)C2)C3)cs1)c1ccc(Cl)cc1 | i
O=C(CSc1nnc(-c2ccncc2)o1)N1c2ccccc2Sc2ccccc21 | i
O=C(c1ccc(Cl)cc1)N(Cc1ccccc1F)N1C(=O)c2ccccc2C1=O | 1%
CCNC(=O)c1cc(Br)c(C)c(C)c1C | i
CCOC(=O)c1sc(NC(=O)c2oc3ccccc3c2C)nc1C | 4%
C=CCOc1c(CNC2CCCC2)cc(Cl)cc1OC | i
O=C(Nc1c(F)cc(F)cc1Br)C1c2ccccc2Oc2ccccc21 | 8%
C=CCN(CC=C)CCCOc1cccc2ccccc12 | i
N#Cc1c(-c2ccco2)[nH]c(=O)[nH]c1=O | 4%
O=C(Nc1cccc(Br)c1)c1ccc(CSCc2ccccc2)cc1 | i
COCCNC(=O)c1ccc(CSc2ccc(C)cc2)cc1 | i
Cn1c(O)c(N=NC(=O)COc2ccc3ccccc3c2)c2ccccc21 | i
O=[N+]([O-])c1cc(C(F)(F)F)ccc1NCc1ccccn1 | i
Cc1ccc(Cl)c2c1NC(=O)C2(O)CC(=O)c1ccc(Br)cc1 (stereo not given) | i
CC(C)(C)NC(=O)CS(=O)(=O)c1ccccc1 | i
CCc1cccc(C)c1NC(=O)C1CCN(C(=O)c2ccccc2Cl)CC1 | i
CCCc1cc(C(=O)NC2CC2)cs1 | i
Cc1c(Cl)cccc1N1CC(=O)N(c2cccc(Cl)c2C)CC1=O | i
COc1cccc(NC(=O)c2ccc(NC(=O)C(c3ccccc3)c3ccccc3)cc2)c1 | 36%
CC(C)(C)C(=O)Nc1ccccc1C(=O)Nc1ccc(Cl)cc1Cl | 4%
COc1ccc(OCC(=O)Nc2ccc3oc(-c4ccncc4)nc3c2)cc1 | i
CCOC1(C(F)(F)F)NC(=O)N(c2ccc(OC)cc2)C1=O (stereo not given) | i
Cc1ccccc1N(CC(=O)Nc1ccccc1C(N)=O)S(=O)(=O)c1ccccc1 | i
COc1ccccc1-c1c(C(F)(F)F)oc2cc(OCCc3ccccc3)ccc2c1=O | 20%
CCC(=O)c1ccc(OC(=O)COc2cc(C)ccc2C)cc1 | i
COC(=O)c1cc2cc(Br)ccc2o1 | i
Cc1ccc(-c2csc3ncn(Cc4cccc(C)c4)c(=O)c23)cc1 | i
Cc1ccc(OCC(=O)NCC2CCCO2)c(C)c1 (stereo not given) | i
COC(=O)c1ccc(NC(=S)N2CCN(CCO)CC2)cc1 | i
O=S(=O)(c1ccccc1)N1CCC(N(CCc2ccccc2)Cc2ccccc2)CC1 | 15%
O=C1CCN(C(=O)c2ccccc2)C2CCCCC12 (stereo not given) | i
O=C(COc1ccccc1Br)Oc1ccc(OCc2ccccc2)cc1 | i
CC(C)(C)c1ccc(CNC(=O)c2ccc3ccccc3n2)cc1 | i
CC1CCc2c(sc3ncn(CC(=O)N4CCOCC4)c(=O)c23)C1 (stereo not given) | i
COc1ccc(NC(=O)CN2CCN(S(=O)(=O)c3ccc(C)cc3C)CC2)cc1 | i
CCOC(=O)c1c(NC(=S)Nc2ccccc2)sc2c1CC(C(C)C)OC2 (stereo not given) | 0%
NC(=O)CCN1CCCCC1c1cccnc1 (stereo not given) | i
CCOC(=O)c1cc(-c2nnc(-c3cc(OC)c(OC)c(OC)c3)o2)c(C)nc1C | 2%
COc1cc2c(cc1NC(=O)c1ccc3ccccc3c1OC)oc1ccccc12 | 19%
Cc1ccc2[nH]c(=O)c(CNS(=O)(=O)c3ccccc3)c(-c3ccccc3)c2c1 | 2%
CCCCc1ccc(NC(=O)CN(c2cc(C(F)(F)F)ccc2Cl)S(C)(=O)=O)cc1 | 10%
Cc1c(-c2ccc(Br)cc2)[n+](=O)c2c(n1[O-])CCCC2 | i
CCC(=O)NC(c1ccc(Cl)cc1)c1cc(Cl)c2cccnc2c1O (stereo not given) | i

Further records follow:
SMILES | Mtb H37Rv
N#Cc1c(NC(=O)CC2Nc3ccccc3NC2=O)sc2c1CCCC2 (stereo not given) | i
CNC(=O)C(=O)Nc1ccc(Br)cc1C | i
Cc1ccc(OCCCn2cncn2)c(I)c1 | i
Cc1ccc(OCC(=O)Nc2ccc(N3CCOCC3)cc2)cc1C | i
CCc1ccc(-n2c(C)nnc2SCc2ccccc2)cc1 | 24%
O=C(NNC(=O)c1cc(-c2ccncc2)nc2ccccc12)Nc1ccc(F)cc1 | i
O=C1c2ccc(-c3nc4ccccc4c(=O)o3)cc2C(=O)N1c1ccc(I)cc1 | i
Cc1nn(C)cc1COC(=O)c1ccc([N+](=O)[O-])cc1 | i
O=C(c1sc2ccccc2c1Cl)N1CCN(c2ccccn2)CC1 | 5%
Cc1cc2c(cc1C)NC(c1ccccn1)C1=C(CC(C)(C)CC1=O)N2 (stereo not given) | i
O=C(Nc1ccc(NC(=O)C23CC4CC(CC(C4)C2)C3)cc1)c1ccc(F)cc1 | i
C=CCn1c(Cc2ccccc2)nnc1SCC(=O)Nc1ccc(Br)cc1C(C)C | 5%
COc1cccc(-c2nc(SCC(=O)Nc3cccc(C(F)(F)F)c3)[nH]c(=O)c2C#N)c1 | i
C=CCc1cccc2cc(C(=O)Nc3ccccc3F)c(=O)oc12 | i
CCCCC1CCC(C(=O)Nc2c(CC)cccc2CC)CC1 (stereo not given) | i
Cc1cc(OCC(=O)Nc2ccc(S(=O)(=O)N3CCCC3)cc2)ccc1Cl | 1%
O=C(Cn1c(=O)n2ncnc2c2c3c(sc21)CCCC3)c1ccccc1 | i
Cc1ccc(C(=O)NCCC2=CCCCC2)cc1Br | 3.1µg/mL*
COc1ccc(-c2cc(C(=O)O)c(C)o2)cc1OC | i
O=C(NCc1cccs1)c1cc2n(n1)C(C(F)(F)F)CC(c1ccc3c(c1)OCO3)N2 (stereo not given) | 1.5µg/mL*
CCCC(=O)NC1C2CC3CC(C2)CC1C3 (stereo not given) | i
CCOC(=O)c1cc(-c2ccccc2)sc1NC(=S)Nc1c(C)n(C)n(-c2ccccc2)c1=O | i
COc1ccc(NC(=O)c2ccco2)cc1NC(=O)c1cc(Br)ccc1Cl | 1%
CCOc1ccccc1NC(=O)CN(c1cccc(Br)c1)S(=O)(=O)c1ccccc1 | 4%
O=S(=O)(c1ccc(Cl)cc1)N1CCN(CC(O)COc2ccc3ccccc3c2)CC1 (stereo not given) | ?
COC(=O)CSc1nc(-c2ccc(OC)cc2)cc(C(F)(F)F)n1 | 1%
CCN(CC)S(=O)(=O)c1cc(C(C)C)c(C)cc1OC | i
CCn1cc(Br)c(C(=O)Nc2cc(OC)c(OC)c(OC)c2)n1 | i
O=[N+]([O-])c1cc(CN2CCOCC2)c2cccnc2c1O | ?
CC(C)N1C(=O)c2ccc(C(=O)O)cc2C1=O | i
Cc1cccc(C)c1NC(=O)c1cccc2c1-c1ccccc1C2=O | 1%
Cc1cccc(C(=O)NC(=S)Nc2ccc(Cl)c(-c3nc4ccccc4s3)c2)c1 | i
CCCC(=O)Nc1cccc(NC(=O)C(Cl)(Cl)Cl)c1 | i
O=C(NC(=S)Nc1ccc(F)cc1)C1CC1 | i
CCCOc1ccc(NC(=O)C2CC(=O)N3CCCN=C3S2)cc1 (stereo not given) | i
CCCOc1cc(C)c(S(=O)(=O)NCCOC)cc1C | i
CCC(=O)NC(=S)Nc1ccc(NC(=O)COc2ccc(Cl)c(C)c2)cc1 | ?
CC(Sc1nnc(-c2ccco2)o1)C(=O)NC(c1ccccc1)c1ccccc1 (stereo not given) | i
CCOC(=O)c1cnc2ccccc2c1Nc1ccc(N2CCOCC2)cc1 | i
COc1ccc(CCN(C)C2CC(=O)N(c3ccc(Br)cc3)C2=O)cc1OC (stereo not given) | i
O=[N+]([O-])c1cc(S(=O)(=O)C(F)(F)F)ccc1N1CCCCC1 | i
CN1CCCC(OC(=O)COc2ccc(F)cc2)C1 (stereo not given) | i
CC1CCN(C(=O)C2CCN(S(=O)(=O)c3ccccc3)CC2)CC1 | 10%
COc1ccc(OCCn2c(CO)nc3ccccc32)cc1 | i
Cc1ccc(C)n1NC(=O)c1ccc([N+](=O)[O-])cc1 | i
COc1cc(NC(=O)c2cccc(I)c2)ccc1NC(=O)C(C)C | 5%
Cc1c(NC(=S)NC(=O)c2ccc(OC(C)C)cc2)cccc1C(=O)O | 2%
Cn1c(=O)c2c(nc(Oc3ccc(C(C)(C)C)cc3)n2Cc2cccc(F)c2)n(C)c1=O | i
FC(F)(F)c1ccccc1NC(=S)Nc1cnn(Cc2ccc(Cl)cc2Cl)c1 | 1%
O=C1CC(c2cnc[nH]2)C2(CCCCC2)O1 (stereo not given) | 7%
COC(=O)COc1ccc(Oc2nc(NCC(C)C)nc(N3CCOCC3)n2)nn1 | i
O=c1c2ccccc2nc(-c2ccco2)n1-c1ccc(Cl)cc1Cl | i

Some of the compounds tested (hit frequency here may not be typical).
